# Screening results (PubChem BioAssay)
# ALR H2O2 inh: human ALR oxidase inhibition via reduced H2O2; P55789; purified ALR, DTT oxidation, H2O2 HRP-luminol luminescence; inhibition, % (test concentration not listed); 290,000 compounds, 3.8% hits; AID 485317;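 active means mean and each replicate at 75% or more; inconclusive means only one of the two met; inactive means neither met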;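 further: stock transfer was 7.5 nL into about 7.5 µL; 0% = neutral wells and 100% = wells with inactivated enzyme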
# Target sequence (P55789 whole entry, looked up): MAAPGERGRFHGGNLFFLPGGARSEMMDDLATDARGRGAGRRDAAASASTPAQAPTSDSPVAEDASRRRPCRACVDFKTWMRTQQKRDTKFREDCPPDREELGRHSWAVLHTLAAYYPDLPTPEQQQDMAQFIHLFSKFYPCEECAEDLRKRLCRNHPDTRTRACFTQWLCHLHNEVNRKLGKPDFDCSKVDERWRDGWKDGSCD
# Calb FLC: affects C. albicans growth with fluconazole | C. albicans CaCi-2 (fluconazole-resistant clinical isolate) + fluconazole, Alamar Blue growth, 48 h | growth inhibition, % (no concentration beside the values) | 300,000 compounds, 0.57% hits;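 active means most replicates above 75%; inconclusive means exactly half above 75%; inactive means most below 75%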;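 further: all wells also contain fluconazole at 8 µg/ml as a sub-toxic cotreatment; 0% = median of DMSO wells and 100% = median of geldanamycin control wells; wells of about 8 µL received 7.5 nL stock; the first replicate is given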
# Vif TR-FRET: HIV-1 Vif–A3G interaction blockers – biochemical, TR-FRET, GST-Vif 1-94, biotin-A3G peptide, dose response retest, primary screen (AID 1117319); TR-FRET GST-Vif / biotin-A3G peptide binding; higher % means a stronger effect; test concentration not given here; strong numbers were not always called active; 260,000 compounds, 0.57% hits; inhibition, %, or IC50 in µM where a hit was titrated;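 active means above the screen mean plus three standard deviations and confirmed in dose response; inconclusive means results disagree or hit not tested in dose response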;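 further: Vif residues 1-94 fused to GST binding biotinylated APOBEC3G peptide 110-148; 0% = full assay without inhibitor and 100% = GST in place of GST-Vif; retest series ran down from 100 µM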
# Beta2AR agonist: human beta-2 adrenergic receptor agonism by FAP | P07550 | Am2.2-beta2AR cells, FAP receptor internalization, flow cytometry; reference of the scale not given here | response, % (concentration not given with the values) | 340,000 compounds, 0.43% hits | AID 504454;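 active means response above a set limit, near 3 SD of response in nonfluorescent compounds, cut at about 42% in these data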;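 further: stock transfer was 100 nL into about 11 µL; a reference agonist was the positive control; negative values mostly stem from fluorescent compounds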
# Target sequence (P07550 whole entry, looked up): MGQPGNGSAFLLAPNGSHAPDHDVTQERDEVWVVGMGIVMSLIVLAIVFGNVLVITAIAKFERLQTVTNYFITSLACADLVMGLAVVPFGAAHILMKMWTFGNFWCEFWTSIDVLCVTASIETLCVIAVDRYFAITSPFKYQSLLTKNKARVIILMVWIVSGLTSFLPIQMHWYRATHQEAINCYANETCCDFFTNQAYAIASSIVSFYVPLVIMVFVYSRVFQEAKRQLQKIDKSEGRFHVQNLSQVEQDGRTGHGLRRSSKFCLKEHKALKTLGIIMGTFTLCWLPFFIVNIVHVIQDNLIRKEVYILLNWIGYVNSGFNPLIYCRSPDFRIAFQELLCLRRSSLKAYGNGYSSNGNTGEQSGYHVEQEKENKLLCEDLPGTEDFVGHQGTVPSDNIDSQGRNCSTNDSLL
# LANA-H2A inh: blocks KSHV LANA binding to histone H2A/H2B. Q9QR71. cell-free LANA-H2A/H2B peptide, fluorescence polarization. inhibition, % (test concentration not listed). 320,000 compounds, 0.6% hits. AID 2629; in the data active means inhibition mostly above about 10%, no sharp cut-off; inactive means mostly below about 6.7%;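 further: stock transfer was 7.5 nL into about 10 µL; 0% = median of vehicle wells and 100% = median of positive control wells; one replicate is shown; the record names a cut of 25% in any replicate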
# RanGTP-Imp inh: inhibitors of RanGTP-importin-beta interaction, primary screen, biochemical, FRET, CFP-Ran, YFP-importin-beta, homogeneous. inhibition, % (no concentration beside the values). cell-free CFP-Ran/YFP-importin-beta FRET ratio. 300,000 compounds, 1.1% hits. AID 2216;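 active means most replicates above 15%; inconclusive means exactly half above 15%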;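 further: 0% = DMSO wells and 100% = Ran loaded with GDP instead of GTP; wells of about 40 µL received 100 nL stock; the first replicate is given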
# HNF4A DNA FP: change in binding of human HNF4 alpha to DNA | HNF4a-FITC DNA binding, fluorescence polarization, 1 h | AID 1224865 | 360,000 compounds, 0.3% hits | activity change, % at 10 µM; in the data active means activity change above about 30%, passing the limit was not always enough;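 further: controls were the assay level and a saturating level of protein; the project sought stronger binding though the title names inhibitors; some compounds called inactive have numbers as strong as hits; positive values seem to mean higher polarization but the record does not say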
# Target sequence (P41235 whole entry, looked up): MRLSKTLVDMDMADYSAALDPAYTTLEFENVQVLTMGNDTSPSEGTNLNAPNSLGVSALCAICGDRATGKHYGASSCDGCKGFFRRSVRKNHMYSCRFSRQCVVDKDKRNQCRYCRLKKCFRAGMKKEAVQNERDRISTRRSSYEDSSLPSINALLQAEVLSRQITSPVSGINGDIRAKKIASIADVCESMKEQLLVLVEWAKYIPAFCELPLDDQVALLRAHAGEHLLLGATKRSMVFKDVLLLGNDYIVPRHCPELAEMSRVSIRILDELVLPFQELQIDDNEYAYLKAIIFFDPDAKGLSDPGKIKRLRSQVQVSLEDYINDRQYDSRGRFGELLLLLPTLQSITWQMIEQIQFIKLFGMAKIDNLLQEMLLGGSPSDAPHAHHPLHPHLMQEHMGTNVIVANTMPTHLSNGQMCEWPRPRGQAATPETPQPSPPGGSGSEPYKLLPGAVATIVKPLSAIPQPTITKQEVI
# Starred values were filed as active, the others as inactive; ? = inconclusive; / = not tested or not shown.
1	CC(=O)Nc1ccc(NC(=O)CSc2ccc3nnc(-c4cccnc4)n3n2)cc1
2	COc1ccc(NC(=O)[C@H](C)NC(=O)C2CCN(S(=O)(=O)c3ccc(C)cc3)CC2)cc1
3	c1ccc(CNCCC(Cc2ccccc2)c2ccco2)cc1 (stereo not given)
4	COc1ccc(NC(=O)CSc2ccc(-c3cccnc3)nn2)cc1
5	O=C(NC(=S)N1CCCCCC1)c1ccccc1
6	COC(=O)c1cc(CNC(=O)C(C)NS(=O)(=O)c2ccc(C)c(C)c2)ccc1OC (stereo not given)

Screen / compound no.	1	2	3	4	5	6
ALR H2O2 inh	-26	-5	-10	-15	2	2
Calb FLC	3	1	-12	-2	-1	8
Vif TR-FRET	/	/	5%	0%	1%	-1%
Beta2AR agonist	-2	-3	5	3	6	-1
LANA-H2A inh	0.8	5.0	-2.0	-1.5	-1.6	-1.3
RanGTP-Imp inh	-1.8	0.7	0.8	4.2	-4.4	1.6
HNF4A DNA FP	-2.6	-1.3	1.3	4.5	-1.3	4.1

7	CN(C)c1ccc(NC(=O)CCn2c(=S)oc3ccccc32)cc1
8	COc1ccc(N(C(=O)c2ccn[nH]2)C(C(=O)NC2CCCC2)c2ccc(F)cc2)cc1 (stereo not given)
9	CC(=O)OCn1ncc(N2CCOCC2)c(Br)c1=O
10	O=C(Nc1ccc(Cl)cc1)OC(CN1CCCCC1)C(F)(F)F (stereo not given)
11	COc1ccc(Cl)cc1NC(=S)NCc1cccs1
12	COc1ccc(C(=O)Nn2c(C)ccc2C)cc1OC

Screen / compound no.	7	8	9	10	11	12
ALR H2O2 inh	98*	-2	/	4	-6	-5
Calb FLC	6	3	-4	-6	-30	1
Vif TR-FRET	7%	/	-6%	3%	?	13%
Beta2AR agonist	-1	2	-5	5	1	6
LANA-H2A inh	0.5	2.7	-0.4	-2.9	-14	4.0
RanGTP-Imp inh	0.7	-0.1	-4.1	3.9	-3.2	2.1
HNF4A DNA FP	3.6	-0.6	1.0	1.8	1.4	5.4

13	COc1ccc(CNC(=O)CN2C(=O)NC(C)(c3cccc4ccccc34)C2=O)cc1OC (stereo not given)
14	COc1cc(NC(=O)c2cc(-c3ccccc3)nc3c2cnn3C(C)C)cc(OC)c1OC
15	Cc1csc(NC(=O)c2ccco2)n1
16	Cc1cccc(NC(=S)N(CCc2ccncc2)C(C)C)c1C
17	COc1ccc2c(CC(=O)N[C@@H](Cc3c[nH]c4ccccc34)C(=O)O)cc(=O)oc2c1
18	Cc1cccc(Cc2nc3ccccc3[nH]2)c1

Screen / compound no.	13	14	15	16	17	18
ALR H2O2 inh	1	-4	-13	-2	3	/
Calb FLC	-5	/	-3	-5	7	/
Vif TR-FRET	-2%	/	-1%	/	0%	-7%
Beta2AR agonist	2	14	-12	-8	6	-2
LANA-H2A inh	0.1	3.0	-4.8	0.9	1.1	/
RanGTP-Imp inh	1.1	/	-0.5	5.7	2.6	/
HNF4A DNA FP	0.6	-0.7	-0.1	2.4	1.2	3.2

19	Cc1cc(NC(=O)c2ccc(C)s2)n(-c2nc3ccccc3[nH]2)n1
20	C=CCOC(=O)C1=C(C)NC(C)=C(C(=O)OCC=C)C1c1ccc(C)o1
21	CC(C)CCNC(=O)C1c2ccccc2Oc2ccccc21
22	CSCCC(NC(=O)c1ccco1)C(=O)NCCc1ccc(F)cc1 (stereo not given)
23	CCO/N=C(/C)c1c(O)cc(-c2ccccc2)n(-c2ccccc2)c1=O
24	COc1ccc(S(=O)(=O)N2CCCC2CNC(=O)C(=O)NCc2ccccn2)cc1 (stereo not given)

Screen / compound no.	19	20	21	22	23	24
ALR H2O2 inh	-1	8	25	-10	-3	-2
Calb FLC	2	4	-5	/	-3	0
Vif TR-FRET	/	4%	-6%	10%	/	-1%
Beta2AR agonist	-19	-5	6	-3	-2	-13
LANA-H2A inh	4.1	0.7	-16	-18	2.4	-4.8
RanGTP-Imp inh	3.0	-3.9	1.8	/	-5.6	-0.9
HNF4A DNA FP	2.2	2.6	2.8	3.5	4.9	0.3

25	Nn1c(SCc2cccc3ccccc23)nnc1-c1ccco1
26	O=C(N=C1SC2CS(=O)(=O)CC2N1c1ccccc1C(F)(F)F)C1CCCO1 (stereo not given)
27	COc1cc(O)c(NC(C)=O)c2nonc12
28	O=C(CCl)N(Cc1cc(=O)[nH]c2ccccc12)c1ccccc1
29	CC(C)=C1Cc2ccccc2C1=O
30	Cc1ccc(NC(=O)CN2CCC(NC(=O)c3cccc(F)c3)CC2)cc1C

Screen / compound no.	25	26	27	28	29	30
ALR H2O2 inh	99*	1	23	96*	/	-17
Calb FLC	-2	-3	-42	23	-1	7
Vif TR-FRET	-2%	/	/	/	4%	/
Beta2AR agonist	-1	11	5	-1	1	14
LANA-H2A inh	-3.3	-3.6	-2.5	-1.1	-2.8	0.5
RanGTP-Imp inh	5.2	-0.1	?	-2.2	-0.5	1.4
HNF4A DNA FP	5.3	0.2	-0.1	2.8	2.5	0.5

31	CCn1ncc(/C=N\NC(=O)c2cc(-c3ccc(C)cc3C)nc3ccccc23)c1C
32	CCCCN1CNC(=S)N(c2ccccc2OCC)C1
33	Cc1nc2c(C)cccn2c1/C(O)=C1\C(=O)C(=O)N(CCN(C)C)C1c1ccco1 (stereo not given)
34	CCCCCc1nc2sc3c(c2c(=O)n1N)CCC3
35	O=C(NCCN1CCOCC1)c1ccc(=O)n(Cc2ccc(Cl)cc2)c1
36	CC1Cc2ccccc2N1CC(=O)Nc1ccc2c(c1)OCCCO2 (stereo not given)

Screen / compound no.	31	32	33	34	35	36
ALR H2O2 inh	-5	-14	-15	-9	-10	13
Calb FLC	40	6	1	-5	2	/
Vif TR-FRET	-6%	-5%	2%	?	-3%	-4%
Beta2AR agonist	-2	8	7	1	1	-3
LANA-H2A inh	5.2	1.8	3.9	1.0	2.9	1.9
RanGTP-Imp inh	0.2	3.6	1.5	-2.4	-1.3	/
HNF4A DNA FP	0.8	0.2	1.7	-3.1	-4.7	3.1

37	C1=C(c2ccccc2)CCN(c2ncnc3nc[nH]c23)C1
38	CC(C)(C)n1ncc2c(=O)n(CC(=O)c3ccc(Cl)cc3)cnc21
39	Oc1cccc(C=NN=C2c3ccccc3-c3ccccc32)c1
40	NC(=S)Nc1cccc(-c2n[nH]c(=S)o2)c1
41	CC1(C(=O)O)CCC(C(=O)Nc2ccc(F)cc2)C1(C)C (stereo not given)
42	CC(=O)C(/C=N/c1ncc(C(F)(F)F)cc1Cl)=C(\C)O

Screen / compound no.	37	38	39	40	41	42
ALR H2O2 inh	9	1	/	/	-6	-3
Calb FLC	0	1	/	10	1	1
Vif TR-FRET	-1%	1%	-7%	/	3%	-8%
Beta2AR agonist	-14	-1	1	0	-4	-6
LANA-H2A inh	-1.7	-3.1	/	-5.2	-2.4	0.9
RanGTP-Imp inh	-1.0	?	/	?	-6.0	22*
HNF4A DNA FP	0.8	1.8	0.6	-2.8	2.6	-0.1

43	CC1CN(Cc2cc(=O)[nH]c(C3CC3)n2)CC(C)O1 (stereo not given)
44	CCc1cccc(C)c1NC(=O)COC(=O)CC1CCCC1
45	O=C(/C=C/c1cc2c(cc1Br)OCO2)NCc1ccc(F)cc1
46	CC(C)(C)C(=O)Nc1ccc(C(=O)COC(=O)c2ccccn2)cc1
47	COc1cccc(OCCNc2cc(Cl)ccc2[N+](=O)[O-])c1
48	COc1ccccc1CNS(=O)(=O)c1cccc(S(=O)(=O)N2CCOCC2)c1

Screen / compound no.	43	44	45	46	47	48
ALR H2O2 inh	38	/	0	-6	-14	4
Calb FLC	1	0	14	/	-2	-3
Vif TR-FRET	63%	0%	-3%	/	31%	82%
Beta2AR agonist	-5	12	-10	16	-5	-15
LANA-H2A inh	-2.1	/	2.0	9.0	-5.6	2.2
RanGTP-Imp inh	?	1.1	-0.2	/	-2.0	3.6
HNF4A DNA FP	-4.7	3.8	2.5	2.3	1.9	3.4

49	CCN(CC(=O)Nc1ccccc1C(F)(F)F)C(=O)CCc1nc2sc3c(c2c(=O)[nH]1)CCCC3
50	CCN1CCN(C(=O)/C=C/c2ccc(OC)cc2)CC1
51	Cc1ccc(NC(=O)c2ccc(OCc3c(C)noc3C)cc2)nc1
52	O=C(NCc1cccc(C(F)(F)F)c1)c1cccc(Cl)c1Cl
53	CCOC(=O)Nc1ccc(Oc2ccccc2)cc1
54	CCCOc1ccc(N2CC(C(=O)Nc3ccccc3OC)CC2=O)cc1 (stereo not given)

Screen / compound no.	49	50	51	52	53	54
ALR H2O2 inh	-14	-13	0	2	-24	0
Calb FLC	3	5	/	11	-69	-5
Vif TR-FRET	-2%	/	1%	-3%	-1%	4%
Beta2AR agonist	-2	-4	3	25	-15	4
LANA-H2A inh	2.5	8.0	2.2	3.5	-0.2	-5.9
RanGTP-Imp inh	3.5	0.6	/	?	-3.4	-1.4
HNF4A DNA FP	0.6	-0.7	6.2	-0.3	-4.7	0.7

# 6 of the compounds above, with two lines to a compound:
# Under each structure – ALR H2O2 inh	Calb FLC	Vif TR-FRET	Beta2AR agonist	LANA-H2A inh	RanGTP-Imp inh	HNF4A DNA FP
54. CCCOc1ccc(N2CC(C(=O)Nc3ccccc3OC)CC2=O)cc1 (stereo not given)
→ 0	-5	4%	4	-5.9	-1.4	0.7
51. Cc1ccc(NC(=O)c2ccc(OCc3c(C)noc3C)cc2)nc1
→ 0	/	1%	3	2.2	/	6.2
49. CCN(CC(=O)Nc1ccccc1C(F)(F)F)C(=O)CCc1nc2sc3c(c2c(=O)[nH]1)CCCC3
→ -14	3	-2%	-2	2.5	3.5	0.6
53. CCOC(=O)Nc1ccc(Oc2ccccc2)cc1
→ -24	-69	-1%	-15	-0.2	-3.4	-4.7
50. CCN1CCN(C(=O)/C=C/c2ccc(OC)cc2)CC1
→ -13	5	/	-4	8.0	0.6	-0.7
52. O=C(NCc1cccc(C(F)(F)F)c1)c1cccc(Cl)c1Cl
→ 2	11	-3%	25	3.5	?	-0.3

# Remaining list, next part.
55	O=c1cnc2ccccc2n1Cc1ccccc1C(F)(F)F
56	Cc1ccccc1NC(=O)NC1(C(=O)NCC2CCCO2)CCCCC1 (stereo not given)
57	O=C(c1ccncc1)c1ccc(NC(=O)c2cccs2)cc1
58	COc1cc(COCC(O)CN2C(C)CCCC2C)cc(OC)c1OC (stereo not given)
59	CC(C)=N/N=C1/NC(=O)C(c2ccc(Cl)cc2)S1 (stereo not given)
60	CC1=C(C)CC(C(=O)Nc2ccc3c(c2)OCO3)C(C(=O)O)C1 (stereo not given)

Screen / compound no.	55	56	57	58	59	60
ALR H2O2 inh	1	1	-1	-1	/	-32
Calb FLC	1	-1	17	-9	/	-13
Vif TR-FRET	/	/	/	/	-1%	6%
Beta2AR agonist	-1	3	-4	-6	6	8
LANA-H2A inh	3.3	0.5	2.7	2.0	/	-5.7
RanGTP-Imp inh	3.6	2.0	-1.4	2.7	/	-1.3
HNF4A DNA FP	-8.6	0.2	-1.4	2.4	2.5	-1.0

61	COc1cccc(NC(=O)/C=C/c2ccco2)c1
62	COc1cccc(CNCCOCCO)c1OC
63	Cc1nc(Nc2nc3c(c(=O)[nH]2)CCC3)nc2ccccc12
64	CC(C)(C)C1=NN=C2c3ccccc3C(=O)C21 (stereo not given)
65	CC(C)CCN1CCC(CN2C(=O)C(=O)NC[C@@H]2Cc2ccccc2)CC1

Screen / compound no.	61	62	63	64	65
ALR H2O2 inh	17	9	-10	0	/
Calb FLC	-15	6	47	10	/
Vif TR-FRET	24%	2%	/	6%	-4%
Beta2AR agonist	1	4	5	19	1
LANA-H2A inh	-13	2.1	3.7	-3.4	/
RanGTP-Imp inh	-3.2	-1.4	2.6	?	/
HNF4A DNA FP	-0.6	-2.2	8.7	-3.8	-0.5
